Screening results deposited in PubChem by SRMLSC.
H5N1 CPE = MDCK cell protection from H5N1 avian flu. inhibition, % at 50 µM. cytopathic effect, luminescence, 72 h; stronger effect = higher value; no value below 0 was filed and about half of the inactive calls have no number; reference of the scale not given here. 96,000 compounds, 0.07% hits. AID 740, 2007; in the data active = inhibition above about 25%
An asterisk follows results filed as active; i = inactive. Some of the compounds tested; the hit share may differ from the screen's.

cpd	compound	H5N1 CPE
1	COc1cc(OC)c(C2=NOC(C(=O)NCCc3ccccc3)C2)cc1Cl (configuration not stated)	0.1
2	O=C1CCC(/C=C/c2ccccc2)=NN1Cc1ccc(Cl)c(Cl)c1	i
3	CC(=O)c1ccc(OC(=O)C(CCS(C)(=O)=O)N2C(=O)c3ccccc3C2=O)cc1 (configuration not stated)	0.3
4	Cc1oc(-c2cccc(Cl)c2)nc1CSCC(=O)O	i
5	Cc1ccc2cc(CCNC(=O)c3ccc4c(c3)OCO4)c(=O)[nH]c2c1C	0.7
6	COc1cccc(OC)c1OCCN(C)C	i
7	COc1ccc(OC)c(C(=O)CN2C(=O)NC(C)(c3ccccc3)C2=O)c1 (configuration not stated)	i
8	C/C=C/C(=O)OCC(=O)Nc1nc2ccc(C)cc2s1	i
9	Cc1ccc(CNC(N)=S)cc1	i
10	CCOC(=O)c1c(C)c(C(=O)Nc2ccc(N(C)C)cc2)c(C)n1CC	i
11	Cc1cccn2c(=O)c3cc(C(=O)N4CCN(C(=O)c5ccco5)CC4)n(C)c3nc12	0.7
12	CCOC(=O)c1cnc(-n2nc(C)cc2C)nc1NCCc1ccccc1	3.0
13	COc1ccccc1C(=O)O/N=C(/C)c1ccc(N2C(=O)C3CCCCC3C2=O)cc1 (configuration not stated)	3.0
14	O=S1(=O)N=CN(Cc2cccc(F)c2)c2ccccc21	i
15	Cc1occc1C(=O)NNC(=O)Cc1ccccc1	i
16	COc1ccc2cc3cc(C(=O)N4CCN(c5ccccc5)CC4)oc3nc2c1	i
17	O=C(Cn1c(=O)sc2ccccc21)Nc1ccc(S(=O)(=O)N2CCCC2)cc1	i
18	COc1ccc(OCC(=O)Nc2cc(-c3nn(C)c(=O)c4ccccc34)ccc2OC)cc1	0.9
19	CC1(C)C(=O)Nc2ccccc2N1C(=O)COC(=O)CCSc1ccccc1	i
20	CSc1ncc(Cl)c(C(=O)NCc2ccc3c(c2)OCO3)n1	0.3
21	CCOC(=O)c1sc2ncnc(NCC(c3cccs3)N(C)C)c2c1C (configuration not stated)	i
22	O=C(NCC1CCCO1)c1nc2c(nnn2Cc2ccc(F)cc2)c(=O)[nH]1 (configuration not stated)	0.5
23	O=c1cccc(-c2ccc(Br)cc2)o1	1.0
24	O=C(CSC1=NCCN1)NC12CC3CC(CC(C3)C1)C2	1.2
25	COc1ccc(OCCCC(=O)Nc2cccnc2)cc1	i
26	CC1(C)CC(=O)C(C=Nc2ccc3[nH]ncc3c2)=C(O)C1	0.8
27	CC(C)C[C@H](NC(=O)Nc1cccc(C(F)(F)F)c1)C(=O)O	i
28	COc1ccc(CCNC(=O)C2CCN(S(C)(=O)=O)CC2)cc1	i
29	Cc1ccccc1NC(=O)c1cccc(S(=O)(=O)Oc2ccc([N+](=O)[O-])cc2)c1	i
30	Cc1noc(C)c1C(=O)Nc1ccc(Cl)cc1C(F)(F)F	i
31	CCOC(=O)c1c(N)n(CCN2CCCCC2)c2nc3ccccc3nc12	0.4
32	CC(C)C(=O)N1CCc2cc(-c3csc(N)n3)ccc21	0.2
33	O=C(CSc1ccccc1)N1CCC2(CC1)OCCO2	i
34	CSC1CCCCC1(O)CSc1nc2ccccc2o1 (configuration not stated)	i
35	O=S(=O)(c1ccc(NCCc2c[nH]c3ccccc23)nc1)N1CCOCC1	1.2
36	COc1ccc2c(c1)c(C(=O)CN1CCN(C(=O)c3ccco3)CC1)c(C)n2C	i
37	CCN(CC)CCCn1c(=S)[nH]c2cc(OC)c(OC)cc2c1=O	1.3
38	CCCC1=C(C(=O)OCC)C2(C(=O)Nc3ccc(C)cc32)C(C#N)=C(N)O1 (configuration not stated)	i
39	Cc1nc2ccc(NC(=O)NCCO)cc2s1	0.7
40	CCOc1ccccc1OCCCCN1CCCC1	0.6
41	CCC(=O)Nc1nnc(SCCOC)s1	i
42	O=C(CCC(=O)OCC(=O)c1ccc(Cl)cc1)NC1CCCCC1	i
43	CCCCC(=O)Nc1cc2nn(-c3ccc(OC)cc3)nc2cc1C	0.4
44	O=C1C(=O)N(Cc2ccco2)C(c2cccc(Cl)c2)/C1=C(\O)c1ccc2c(c1)OCCO2 (configuration not stated)	i
45	O=C(NCCCN1CCOCC1)NC1CCCCC1	i
46	COc1ccc(CCn2c(SCC(=O)Nc3cc(C)on3)nc3ccccc3c2=O)cc1OC	0.9
47	CC(C)c1nc(SCC(=O)N2CCCc3ccccc32)c2c(=O)n(C)c(=O)n(C)c2n1	i
48	CC(C)COC(=O)CCNc1n[nH]c(=O)[nH]c1=O	i
49	Cc1cc(S(=O)(=O)Nc2ccc(F)cc2)c(C)s1	0.9
50	COC(=O)C1=C(C)NC(=O)/C1=C\c1ccco1	1.6

(cont.)
cpd	compound	H5N1 CPE
51	COc1nc(-c2ccccc2)ccc1-c1noc(C)n1	i
52	Cc1ccccc1CSCCNS(C)(=O)=O	i
53	CCn1c2ccccc2c2cc(Nc3cc(C)nc4ncnn34)ccc21	i
54	Cc1ccccc1-n1c(SC/C(O)=C(\C#N)c2nc3ccccc3[nH]2)nnc1-c1ccncc1	0.6
55	O=C(Nc1ccc(-c2nc3c(ccc4ccccc43)o2)cc1)c1ccco1	i
56	Cc1ccc(NC(=O)c2cc(-c3ccco3)on2)cc1	i
57	COC(=O)c1cc2ccsc2n1CC(=O)Nc1cc(C)cc(C)c1	i
58	O=c1[nH]c(CN2CCN(c3ccccc3Cl)CC2)nc2ccsc12	1.6
59	COc1ccc(/C=N/NC(=O)c2cc(-c3ccccc3OC)nc3ccccc23)cc1COC(C)=O	i
60	Cc1ccccc1NC(=O)CN1C(=O)S/C(=C\c2cccn2-c2cccc(C(=O)O)c2)C1=O	0.5
61	O=C(CCC1(C(=O)O)CCC(=O)NC1)NCc1ccccc1 (configuration not stated)	0.1
62	CN(C)C(/C=C/Nc1ccccc1F)=C(C#N)C#N	0.0
63	Cc1ccnc(NC(=O)CCC(=O)N(CC(=O)NC(C)(C)C)C2CCCC2)c1	i
64	O=C(NC(=S)NC1CC1)c1cccnc1	1.1
65	COc1cc(/C=N/NC(=O)C(C)n2nnc3ccccc32)ccc1O (configuration not stated)	0.1
66	CCOc1cccc(-c2nnc(SCC(=O)Nc3cc(OC)cc(OC)c3)n2N)c1	0.9
67	COc1cccc2c1C(=O)O/C2=C/c1ccc2c(c1)OCO2	1.7
68	CCN(CC)C(=O)c1ccc(N2C(=O)C3CC=C(Cl)CC3C2=O)cc1 (configuration not stated)	0.2
69	COC(=O)/C=C/CSC1=N/C(=C/c2ccc(-n3cncn3)cc2)C(=O)N1	i
70	N[C@@H](Cc1c[nH]c2ccccc12)c1nnc(SCc2c(F)cccc2Cl)o1	i
71	COC(=O)c1ccc(C2C(Oc3ccccc3C)C(=O)N2CCc2ccc(OC)c(OC)c2)cc1 (configuration not stated)	0.1
72	Clc1ccc(-c2nnc(-c3ccccc3)o2)c(Cl)c1	i
73	COC(=O)Nc1sccc1C(=O)Nc1sccc1C(=O)OC	1.7
74	CCCCNS(=O)(=O)c1ccc2nc(SCC(=O)c3ccccc3OC)[nH]c2c1	i
75	CCOc1ccc(NS(=O)(=O)c2ccc(OCC(=O)NCCCOC)cc2)cc1	1.8
76	CCc1ccc(NC(=O)c2ccccc2NC(=O)C2CCCO2)cc1 (configuration not stated)	i
77	O=S(=O)(NCCCCCNS(=O)(=O)c1ccc(F)cc1)c1ccc(F)cc1	2.1
78	FC(F)(F)c1cccc(-c2noc(CN3CCOCC3)n2)c1	i
79	O=C(c1cccc2c1C(=O)N(Cc1cccnc1)C2)N1CCN(c2ccccc2)CC1	3.0
80	O=C(/C=C/NNC(=O)c1ccc(Br)cc1)c1ccccc1	i
81	O=C(NCC(=O)N1CCC(N2CCCCC2)CC1)C1CCCCC1	0.9
82	COCCOC(=O)C1=C(C)N=C2SCCC(=O)N2C1c1cccc(Br)c1 (configuration not stated)	1.1
83	O=C(C(Cc1ccccc1)n1cccc1)N1CCN(c2ccccc2)CC1 (configuration not stated)	0.1
84	CC(C)OC(=O)C1CC=CCC1C(=O)Nc1ccc(Cl)cc1 (configuration not stated)	0.3
85	COc1ccc(-c2nnc(SCC(=O)NC3CCCCC3)o2)cc1OC	0.6
86	O=C(CCCN1C(=O)c2ccccc2C1=O)Oc1ccc(Cl)cc1	0.1
87	C(=C\c1ccccc1)/C=N/Nc1nc2ccccc2s1	i
88	NC(=O)C1(N2CCCCC2)CCN(CC(=O)Nc2ccccc2Sc2ccccc2)CC1	i
89	CC1CCN(C(=O)c2ccc3c(c2NCCO)C(=O)c2ccccc2C3=O)CC1	0.3
90	Cc1cccc(C(=O)O/N=C2\CCS(=O)(=O)c3sccc32)c1	i
91	C=CCNc1nc2c(c(=O)n(C)c(=O)n2C)n1CC	3.3
92	O=C(CN1CCSCC1)N1CCc2[nH]c3ccc(Br)cc3c2C1	0.7
93	Cn1c(N2CCCC2)nc2c1c(=O)n(Cc1cccc(F)c1)c(=O)n2C	i
94	Cc1nn(-c2ccccc2)c(OC(=O)c2cccs2)c1S(=O)(=O)c1ccccc1	i
95	Cc1ccc(NC(=S)NN2CCOCC2)c(C)c1	i
96	Cc1oc2c(CN3CCOCC3)c(O)ccc2c(=O)c1-c1ccc(Br)cc1	1.5
97	O=C(CSc1nnnn1-c1ccc(F)cc1)Nc1ccc(N2CCOCC2)c(Cl)c1	0.5
98	N#CC1=C(N)SC(N)=C(C#N)C1c1c(Cl)cccc1Cl	i
99	CCN1C(=O)/C(=C2\SC(=S)N(CC3CCCO3)C2=O)c2ccccc21 (configuration not stated)	1.4
100	O=C(CSc1nnc(-c2ccccc2)o1)c1ccc2c(c1)OCCO2	i

The list goes on:
entry	compound	H5N1 CPE
101	CN(C(=O)CSc1nnc(-c2ccco2)o1)C1CCCCC1	3.1
102	COc1ccc(S(=O)(=O)N(C)CC(=O)Nc2ccccc2SC)cc1	i
103	O=C(c1ccco1)N1c2ccccc2Sc2ccccc21	i
104	COc1ccccc1N1CCN(Cc2cc(C)c(C)cc2O)CC1	i
105	Cc1ccc(-c2[nH]n3c(=O)c4c(nc3c2C)CCCC4)cc1	i
106	Cc1noc(C)c1S(=O)(=O)Nc1ccc(C(=O)NC2CCCCC2)cc1	1.1
107	O=[N+]([O-])c1cccnc1NCCNc1ncc(C(F)(F)F)cc1Cl	2.7
108	CSc1ccc(NC(=O)N2CCN(c3nc4ccccc4s3)CC2)cc1	0.3
109	CCOC(=O)CN1CC23C=CC(O2)C(C(=O)Nc2ccc4c(c2)OCO4)C3C1=O (configuration not stated)	i
110	COc1cccc(N2CC(O)Cn3c2nc2c3c(=O)n(CCCc3ccccc3)c(=O)n2C)c1 (configuration not stated)	i
111	Clc1ccccc1COc1ccccc1-c1nnco1	i
112	CC(C)Nc1nc(NC(C)C)nc(N(C)C#N)n1	i
113	O=C(N1CCOCC1)C(F)(F)C(=O)N1CCOCC1	i
114	Cc1cc(N2CCC(C(N)=O)CC2)nc(-c2ccccc2)n1	0.7
115	COc1ccccc1NC(=O)CN(c1ccc(C)cc1)S(=O)(=O)c1c(C)n[nH]c1C	1.2
116	N#CCCNC(=O)CCN1CCCCC1	i

Ordered by number of heavy atoms (highest first): some entries from above
entry	compound	H5N1 CPE
110	COc1cccc(N2CC(O)Cn3c2nc2c3c(=O)n(CCCc3ccccc3)c(=O)n2C)c1 (configuration not stated)	i
114	Cc1cc(N2CCC(C(N)=O)CC2)nc(-c2ccccc2)n1	0.7
116	N#CCCNC(=O)CCN1CCCCC1	i

More entries:
entry	compound	H5N1 CPE
117	C=CCn1c(SCC(=O)N2CCOCC2)nc2sc3c(c2c1=O)CCCC3	1.4
118	N#Cc1c(SCC(N)=O)nsc1SCc1ccccc1Cl	0.6
119	O=C(COC(=O)COc1ccccc1[N+](=O)[O-])Nc1ccc(S(=O)(=O)N2CCCCC2)cc1	1.7
120	CC(C)(CO)NC(=O)CCCOc1ccc(Cl)cc1Cl	i
121	O=C(OCc1cn(-c2ccc(Cl)c(Cl)c2)nn1)c1ccccc1	i
122	COc1cccc2cc(C(=O)C3=C(O)C(=O)N(CCN(C)C)C3c3ccc(F)cc3)oc12 (configuration not stated)	0.8
123	Cc1c(Cl)cccc1-n1c(SCC(=O)NCc2ccccc2Cl)nnc1-c1ccncc1	0.1
124	O=c1[nH]c2ccc(S(=O)(=O)N3CCN(c4ccccc4)CC3)cc2[nH]c1=O	i

The last 2 compounds of the section before are carried over, then new ones follow:
entry	compound	H5N1 CPE
123	Cc1c(Cl)cccc1-n1c(SCC(=O)NCc2ccccc2Cl)nnc1-c1ccncc1	0.1
124	O=c1[nH]c2ccc(S(=O)(=O)N3CCN(c4ccccc4)CC3)cc2[nH]c1=O	i
125	CC(=O)C1C(c2ccccc2Cl)NC(=O)NC1(O)C(F)(F)F (configuration not stated)	0.1
126	CCOC(=O)c1c(-c2ccccc2)c(C(C)=O)c(=O)n(C)c1C	i
127	CCn1nnnc1-c1ccc(OC)c(S(=O)(=O)N2CCCCC2)c1	1.4
128	COc1cccc(C(CC(=O)NCC2CCCO2)NS(=O)(=O)c2ccc(C)cc2)c1OC (configuration not stated)	i
129	CC1CCCC(C)N1CCNC(=O)Cn1nc(-c2ccccc2)ccc1=O (configuration not stated)	i
130	Cn1c(=O)c2c(nc(Sc3ncccn3)n2Cc2ccccc2Cl)n(C)c1=O	2.5
131	O=C(Cc1cccs1)Nc1ccc2c(c1)C(=O)OC2	0.8
132	CCc1ccc(OCC(=O)N(C)C2CCS(=O)(=O)C2)cc1 (configuration not stated)	i
133	C=CCN1C(=O)C(C(C)CC)NC1=S (configuration not stated)	i
134	Cn1cc(C(=O)N2CCC3(CC2)OCCO3)c2c3ccccc3n(C)c2c1=O	0.8
135	Cc1cc(C(F)(F)F)n(-c2nc(C(=O)NNS(=O)(=O)c3ccccc3)cs2)n1	2.4

By substructure, the compounds so far with a CF3 group.
entry	compound	H5N1 CPE
27	CC(C)C[C@H](NC(=O)Nc1cccc(C(F)(F)F)c1)C(=O)O	i
30	Cc1noc(C)c1C(=O)Nc1ccc(Cl)cc1C(F)(F)F	i
78	FC(F)(F)c1cccc(-c2noc(CN3CCOCC3)n2)c1	i
107	O=[N+]([O-])c1cccnc1NCCNc1ncc(C(F)(F)F)cc1Cl	2.7
125	CC(=O)C1C(c2ccccc2Cl)NC(=O)NC1(O)C(F)(F)F (configuration not stated)	0.1
135	Cc1cc(C(F)(F)F)n(-c2nc(C(=O)NNS(=O)(=O)c3ccccc3)cs2)n1	2.4
